TRPML1 blocker: qHTS for Inhibitors of the Human Mucolipin Transient Receptor Potential 1 (TRPML1); Mucolipin-1 (Homo sapiens), Q9GZU1; TRPML1-inducible cells, Ca2+ dye fluorescence, FDSS; stronger effect = lower value; inhibition of EC80 agonist-evoked calcium signal; activity change, negative = inhibition, % (test concentration not listed); 390,000 tested, 0.02% active; in the data active means activity change below about -50%; inconclusive means about -30% to -50%; inactive means above about -30%;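 note: stimulus is agonist 54-4 at its EC80 concentration; % is set by controls: 0 for no effect and ±100 for the full control effect; compound concentration not given in the record; the text of the record puts the active cut at -80%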
Target sequence (Q9GZU1 whole entry, looked up): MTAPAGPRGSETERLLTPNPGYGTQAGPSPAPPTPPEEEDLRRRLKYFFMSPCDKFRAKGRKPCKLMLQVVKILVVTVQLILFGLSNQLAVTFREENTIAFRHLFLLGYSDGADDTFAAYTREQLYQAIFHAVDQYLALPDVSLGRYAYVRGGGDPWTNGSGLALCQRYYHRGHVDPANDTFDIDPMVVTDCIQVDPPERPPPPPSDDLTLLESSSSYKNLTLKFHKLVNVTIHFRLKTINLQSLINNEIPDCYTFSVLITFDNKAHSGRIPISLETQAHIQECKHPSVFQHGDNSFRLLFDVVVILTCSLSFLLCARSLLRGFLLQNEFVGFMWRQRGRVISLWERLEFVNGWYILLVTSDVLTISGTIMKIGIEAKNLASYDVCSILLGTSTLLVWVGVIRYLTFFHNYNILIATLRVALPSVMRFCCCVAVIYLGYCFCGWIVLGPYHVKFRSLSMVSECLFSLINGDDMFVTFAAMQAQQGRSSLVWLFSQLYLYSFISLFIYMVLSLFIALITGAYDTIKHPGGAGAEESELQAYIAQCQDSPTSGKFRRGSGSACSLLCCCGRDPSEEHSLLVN
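Calcium fluorescence in TRPML1-DL cells induced overnight with Tet: a 110 s read after compound pin addition, then a 110 s antagonist read after challenge with 54-4 at 4 uM final (EC80).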
CtBP-E1A inh: qHTS Assay for Inhibitors of the CtBP/E1A Interaction; CtBP / adenovirus E1A interaction (AlphaScreen); AlphaScreen GST-E1A/His-CtBP binding, 1536-well; stronger effect = lower value; control for the full effect not named in the record; activity change, % (no concentration beside the values); 340,000 tested, 0.49% active; in the data active means activity change below about -65%; inconclusive means about -30% to -65%; inactive means above about -30%; note: % is set by controls: 0 for no effect and ±100 for the full control effect; compound concentration not given in the record
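Protein mix (5X: 125 nM each GST-E1A, His-CtBP) was incubated with pinned compound 2 h at 37 deg C in dark, in 50 mM Tris pH 8.0 buffer with 300 mM NaCl. Glutathione donor and nickel acceptor beads followed; AlphaScreen signal read after 1 h.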
D2 ag: Beta-Arrestin HTS for Positive Allosteric Modulators of the Human D2 Dopamine Receptor: Agonists | D(2) dopamine receptor (Homo sapiens), P14416 | DiscoveRx PathHunter D2 beta-arrestin, luminescence, 90 min; 100% = 57 uM dopamine signal | activation, % (concentration not given with the values) | 360,000 tested, 0.084% active | AID 624465, 2012; in the data active = activation above about 40%; inconclusive = about 15% to 40%; inactive = below about 15%; note: compound concentration not given in the record; the text of the record calls up to 30% inactive
Target sequence (P14416 whole entry, looked up): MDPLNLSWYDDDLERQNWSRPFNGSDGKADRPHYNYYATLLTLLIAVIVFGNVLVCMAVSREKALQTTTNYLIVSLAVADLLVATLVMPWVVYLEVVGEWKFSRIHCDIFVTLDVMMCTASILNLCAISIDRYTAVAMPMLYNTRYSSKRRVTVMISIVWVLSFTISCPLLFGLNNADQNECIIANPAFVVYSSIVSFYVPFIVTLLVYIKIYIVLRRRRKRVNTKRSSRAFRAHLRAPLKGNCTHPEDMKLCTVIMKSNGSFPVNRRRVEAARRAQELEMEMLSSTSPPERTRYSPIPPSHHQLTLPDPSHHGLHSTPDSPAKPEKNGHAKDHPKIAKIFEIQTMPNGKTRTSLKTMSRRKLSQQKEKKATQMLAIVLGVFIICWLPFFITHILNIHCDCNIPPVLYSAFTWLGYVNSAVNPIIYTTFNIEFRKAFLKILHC
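Agonist mode: compounds alone added to overnight-plated D2 PathHunter cells for 90 min at 37 C, with 57 uM final dopamine (EC100) defining full response. Beta-arrestin recruitment detected by chemiluminescent reagent, read after 1 h at ambient temperature.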
PINK1 expr mod: A Quantitative High throughput Screen to Identify Chemical Modulators of PINK1 Expression | Potency, µM (series often up to 76.6 µM), without a hit: at the highest dose activation (PINK1 increase), usual class: activators | PINK1 immunofluorescence, high-content cytometry, 24 h | 410,000 tested, 0.2% active | AID 624263, 2012; active = well fitted activation curve with a large enough effect; inconclusive = small, poorly fitted or top-dose-only effect; inactive = flat fitted curve, though single readings scatter; cell line not stated here;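 note: potency is the fitted concentration of half-maximal effect; % of control where 0% means no effect; nearly all actives have a fitted effect of over 65% in size; a mitochondrial uncoupler was the plate control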
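PINK1 protein, normally rapidly degraded, was detected by immunofluorescence after 24 hour compound treatment of a stable cell line. Titration data (5 concentrations) came from laser-scanning cytometry, with CCCP-treated wells as controls.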
Six1-Eya2 blk: qHTS Assay for Inhibitors of the Six1/Eya2 Interaction; AlphaScreen GST-Six1/His-Eya2 binding, biochemical; stronger effect = lower value; control for the full effect not named in the record; 360,000 tested, 0.56% active; activity change, % (no concentration beside the values); Homeobox protein SIX1 (Homo sapiens) + Protein phosphatase EYA2 (Homo sapiens), …; AID 651725, 2012; in the data active = activity change below about -65%; inconclusive = about -30% to -65%; inactive = above about -30%; note: % is set by controls: 0 for no effect and ±100 for the full control effect; compound concentration not given in the record
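Compounds are tested against tagged Six1 and Eya2 proteins bridged by glutathione donor and nickel acceptor beads; after a one-hour incubation at 37 °C without light, AlphaScreen emission is recorded.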
TRPML1 agonist: qHTS for Agonists of the Human Mucolipin Transient Receptor Potential 1 (TRPML1); Mucolipin-1 (Homo sapiens), Q9GZU1; TRPML1-expressing cells, Ca2+ dye fluorescence, FDSS; host cell line not named in the record; reference of the full effect not given here; activation, % (no concentration beside the values); 410,000 tested, 0.12% active; AID 624414, 2012; in the data active = activation above about 50%; inconclusive = about 30% to 50%; inactive = below about 30%; note: 0% is about no effect; the text of the record puts the active cut at 80%
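Kinetic FDSS Ca2+ read in Tet-induced TRPML1-DL cells (ABD Ca8 dye plus quencher, 45-90 min RT loading): baseline, then compound, then 110 s agonist window; EC80 agonist 54-4 at 4uM final added afterwards for a 110 s antagonist window.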
The depositor's hits bear a star; [ ] = another dose, or the depositor's remark.

`O=C(CNC(=O)c1ccc(Br)cc1)NC1CC1` gave TRPML1 blocker -8, D2 ag 5.8, PINK1 expr mod 1.2%, Six1-Eya2 blk 6 and TRPML1 agonist -0.5.
Screening COc1ccc(CN=C2NC(=O)CC(C(=O)Nc3cc(C)cc(C)c3)S2)cc1 (centres undefined) returned TRPML1 blocker 7, CtBP-E1A inh 0, D2 ag -1.8, PINK1 expr mod 1.1%, Six1-Eya2 blk 6 and TRPML1 agonist 0.2.
For Cc1ccsc1/C=N/NC(=O)c1ccc(-n2cccc2)cc1 the results were TRPML1 blocker -19, CtBP-E1A inh 2, D2 ag -2.0, PINK1 expr mod 2.6%, Six1-Eya2 blk 2 and TRPML1 agonist 0.7.
For OC(CNCc1ccccc1)c1ccccc1 (centres undefined) the results were TRPML1 blocker 14, CtBP-E1A inh 6, D2 ag -3.8, PINK1 expr mod -0.5%, Six1-Eya2 blk -12 and TRPML1 agonist -0.2.
Screening Cc1ccc2cc(C#N)c(NCCNC(=S)NCCCN3CCOCC3)nc2c1 returned TRPML1 blocker 6, D2 ag -1.8, PINK1 expr mod 1.0%, Six1-Eya2 blk -2 and TRPML1 agonist 1.1.
CCN(CC)C(=O)C[n+]1cccc(/C=N/O)c1 was read as TRPML1 blocker -9, CtBP-E1A inh -4, D2 ag -4.0, PINK1 expr mod 0.0%, Six1-Eya2 blk 1 and TRPML1 agonist 0.4.
For CCc1nc2c(OCc3ccccc3C)cccn2c1N(C)C(=O)C1CC1 the results were CtBP-E1A inh -1, D2 ag -4.3, PINK1 expr mod 3.1%, Six1-Eya2 blk -4 and TRPML1 agonist -1.0.
CCCCn1c(=O)nc2n(-c3ccc(Br)cc3)c3ccccc3cc-2c1=O was read as TRPML1 blocker -7, PINK1 expr mod 0.2% and TRPML1 agonist 1.5.
Screening Cc1nc2c(-c3ccc(F)cc3)c(C)[nH]n2c(=O)c1Cl returned TRPML1 blocker -12, CtBP-E1A inh -4, D2 ag -6.0, PINK1 expr mod -0.5%, Six1-Eya2 blk -10 and TRPML1 agonist -0.4.
Screening O=C(COc1ccccc1[N+](=O)[O-])Nc1cccnc1 returned TRPML1 blocker -6, CtBP-E1A inh 6, D2 ag -1.3, PINK1 expr mod -0.8%, Six1-Eya2 blk 3 and TRPML1 agonist 0.8.
For CCOC(=O)C1CCCN(C(=O)c2cn(CC(C)C)c(=O)c3cc(OC)c(OC)cc23)C1 (centres undefined) the results were TRPML1 blocker 3, CtBP-E1A inh -6, D2 ag -3.0, PINK1 expr mod 2.2%, Six1-Eya2 blk -2 and TRPML1 agonist 0.0.
For O=C(N/N=C/c1cccs1)c1cccc2cc[nH]c12 the results were TRPML1 blocker -10, CtBP-E1A inh -7, D2 ag -1.3, PINK1 expr mod -0.2%[38.3 µM], Six1-Eya2 blk -5 and TRPML1 agonist -0.8.
`O=[N+]([O-])c1ccc(OCCN2CCNCC2)cc1` gave TRPML1 blocker 18, D2 ag -2.3, PINK1 expr mod -0.5%, Six1-Eya2 blk -2 and TRPML1 agonist 0.4.
For O=C(NCC1CCCO1)c1cccc2c1C(=O)c1ccc(N3CCC(Cc4ccccc4)CC3)cc1S2(=O)=O (centres undefined) the results were TRPML1 blocker -10, CtBP-E1A inh 15, D2 ag 6.1, PINK1 expr mod -1.4%, Six1-Eya2 blk 1 and TRPML1 agonist 12.
Screening C#CCN(C[C@H]1[C@H](OC(=O)Nc2c(C)noc2C)[C@H](OC(=O)Nc2c(C)noc2C)C[C@H]2C(=O)N(c3ccccc3)C(=O)[C@@H]12)S(=O)(=O)c1ccc(C)cc1 returned TRPML1 blocker inconclusive, CtBP-E1A inh 2, D2 ag 0.7, PINK1 expr mod 4.0%, Six1-Eya2 blk 13 and TRPML1 agonist 0.1.
`COC(=O)c1ccc(NC(=O)CN(Cc2ccccc2)S(=O)(=O)c2ccc(C)cc2)cc1` gave TRPML1 blocker 12, PINK1 expr mod -0.2% and TRPML1 agonist 2.0.
C#CCOCCOCCOCCNc1nc(N2CCN(C(=O)[C@H](CC(N)=O)n3cc(C(N)[C@H](C)CC)nn3)CC2)nc(N2CCN(C(=O)[C@H](CC(N)=O)n3cc(C(N)[C@@H](C)CC)nn3)CC2)n1 (some centres undefined) was read as TRPML1 blocker -8, CtBP-E1A inh -9, D2 ag -4.6, PINK1 expr mod 1.6%, Six1-Eya2 blk -15 and TRPML1 agonist -0.6.
For C[C@@H]1CN[C@H](CCO)/C1=C\c1ccccc1 the results were TRPML1 blocker 24, CtBP-E1A inh 0, D2 ag 1.5, PINK1 expr mod -1.2%, Six1-Eya2 blk 7 and TRPML1 agonist -0.4.
For CCc1nc2c(OCCC3CCCCC3)cccn2c1N(C)C(=O)COc1ccccc1 the results were TRPML1 blocker -5, CtBP-E1A inh -23, D2 ag -4.1, PINK1 expr mod 6.9%, Six1-Eya2 blk 2 and TRPML1 agonist 2.1.
COCc1cc(=O)n2c(-c3ccc(C)cc3)n[nH]c2n1 was read as TRPML1 blocker -10, CtBP-E1A inh -7, D2 ag -4.5, PINK1 expr mod 3.4%, Six1-Eya2 blk 1 and TRPML1 agonist 0.2.
For O=C(O)C1=CC2C=C(Cl)C=CC2OC1=O (centres undefined) the results were TRPML1 blocker -7, CtBP-E1A inh -20, D2 ag 0.9, PINK1 expr mod -1.0%, Six1-Eya2 blk 14 and TRPML1 agonist -0.1.
Screening COc1ccc(Br)cc1S(=O)(=O)NCCc1cccs1 returned TRPML1 blocker 10, CtBP-E1A inh 8, D2 ag 2.6, PINK1 expr mod 4.7%, Six1-Eya2 blk 3 and TRPML1 agonist -0.6.
CCN1C(=O)[C@H]2[C@@H](c3ccc(-c4cccc(Cl)c4)cc3)N3CCCC[C@@]3(C(=O)OC)[C@H]2C1=O was read as TRPML1 blocker 5, D2 ag 1.6, PINK1 expr mod 5.6%, Six1-Eya2 blk -12 and TRPML1 agonist -0.5.
`Cc1ccc(OCC(=O)N/N=C\c2ccc(-c3cccc(C(=O)O)c3)o2)c(C)c1` gave TRPML1 blocker 9, CtBP-E1A inh -4, D2 ag 0.3, PINK1 expr mod 5.8%, Six1-Eya2 blk inconclusive and TRPML1 agonist 0.0.
For Cc1cc(NCCCN)nc(-c2ccccc2O)n1 the results were TRPML1 blocker 37, CtBP-E1A inh 0, D2 ag -3.7, PINK1 expr mod -2.8%, Six1-Eya2 blk 0 and TRPML1 agonist 17.
For CCCCN(CCCC)CCNC(=O)CSCc1ccc(C)cc1 the results were TRPML1 blocker 10, CtBP-E1A inh -3, D2 ag -2.4, PINK1 expr mod -2.1%, Six1-Eya2 blk -12 and TRPML1 agonist 0.7.
Screening Cc1cc(OCC(=O)Nc2cc(S(=O)(=O)N3CCOCC3)ccc2N2CCCC2)ccc1C(C)C returned TRPML1 blocker 8, CtBP-E1A inh 0, D2 ag -4.6, PINK1 expr mod 2.4%, Six1-Eya2 blk 0 and TRPML1 agonist 1.5.
For COc1ccc(CCNC(=O)C(=O)NCC(c2cccnc2)N2CCN(c3ccccc3)CC2)cc1 (centres undefined) the results were TRPML1 blocker 20, PINK1 expr mod -0.7% and TRPML1 agonist 2.1.
CCC1=C(c2ccc(C)cc2)S(=O)(=O)N=C1N1CCC(C(=O)Nc2ccccc2F)CC1 was read as TRPML1 blocker 8, PINK1 expr mod 1.4% and TRPML1 agonist 4.3.
O=C1c2ccccc2CSc2c(O)cccc21 was read as TRPML1 blocker 5, CtBP-E1A inh 5, D2 ag -2.8, PINK1 expr mod 2.0%, Six1-Eya2 blk -7 and TRPML1 agonist 1.9.

The closing 3 entries of the part above open the next one.
For COc1ccc(CCNC(=O)C(=O)NCC(c2cccnc2)N2CCN(c3ccccc3)CC2)cc1 (centres undefined) the results were TRPML1 blocker 20, PINK1 expr mod -0.7% and TRPML1 agonist 2.1.
CCC1=C(c2ccc(C)cc2)S(=O)(=O)N=C1N1CCC(C(=O)Nc2ccccc2F)CC1 was read as TRPML1 blocker 8, PINK1 expr mod 1.4% and TRPML1 agonist 4.3.
O=C1c2ccccc2CSc2c(O)cccc21 was read as TRPML1 blocker 5, CtBP-E1A inh 5, D2 ag -2.8, PINK1 expr mod 2.0%, Six1-Eya2 blk -7 and TRPML1 agonist 1.9.
O=C(COC(=O)c1ccc[nH]c1=O)Nc1ccc(S(=O)(=O)N2CCCC2)cc1 was read as TRPML1 blocker 8, D2 ag -4.0, PINK1 expr mod 0.3%, Six1-Eya2 blk 2 and TRPML1 agonist -0.4.
For CCN(CC)C(=O)C1=C(C)Nc2nc3ccccc3n2C1c1cccc(Cl)c1 (centres undefined) the results were TRPML1 blocker -7, PINK1 expr mod 5.0% and TRPML1 agonist -1.0.
`CC1CC(C)CN(C(=O)COC(=O)c2ccc(Cl)nc2)C1` (centres undefined) gave TRPML1 blocker -20, CtBP-E1A inh 5, D2 ag -0.9, PINK1 expr mod -0.8%, Six1-Eya2 blk 4 and TRPML1 agonist 0.7.
For C[C@H]1CN([C@@H](C)CO)C(=O)c2cc(-c3cccc(F)c3)cnc2O[C@H]1CN(C)C(=O)c1cnccn1 the results were TRPML1 blocker -6, CtBP-E1A inh -6, D2 ag -9.3, PINK1 expr mod 0.4%, Six1-Eya2 blk 2 and TRPML1 agonist -0.3.
`COc1ccccc1-c1nnc(C2CCN(C(=O)c3cccc(C)c3)CC2)o1` gave TRPML1 blocker 14, PINK1 expr mod 1.3% and TRPML1 agonist -0.2.
Cc1ccccc1NC(=O)C1CCN(C(=O)c2ccc(F)cc2)CC1 was read as TRPML1 blocker -13, PINK1 expr mod -0.7% and TRPML1 agonist -0.6.
Screening CCn1cc(C(=O)NCC2CCCO2)c(=O)c2cc(S(=O)(=O)N3CCC(C)CC3)ccc21 (centres undefined) returned TRPML1 blocker 9, CtBP-E1A inh -1, D2 ag -1.9, PINK1 expr mod -0.9%, Six1-Eya2 blk -6 and TRPML1 agonist 1.0.
Screening CCOc1ccc(CNC(=O)c2cc3c(=O)n(C)c4ccccc4c3s2)cc1 returned TRPML1 blocker 0, PINK1 expr mod -0.4% and TRPML1 agonist -1.0.
COCCN(C(=O)COC(=O)c1sccc1C)c1c(N)n(Cc2ccccc2)c(=O)[nH]c1=O was read as TRPML1 blocker 13, CtBP-E1A inh -8, D2 ag -1.6, PINK1 expr mod -0.8%, Six1-Eya2 blk 3 and TRPML1 agonist 0.8.
